Compound activity deposited in PubChem by several laboratories.
Sa RN4220 lethal = kills Staphylococcus aureus RN4220; S. aureus RN4220 growth, OD600, 16 h; inhibition, % (concentration not given with the values); 330,000 tested, 0.33% active;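 active = z-score of -3 or lower and OD600 up to 0.18 on both plates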;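 also: plate controls were untreated cells for no effect and reference antibiotic for full effect; stock transfer was 100 nL into about 80 µL; one replicate is shown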
Bead autofluor = flagged as autofluorescent in microsphere protease counterscreen. compound autofluorescence counterscreen, microsphere flow cytometry; stronger effect = higher value. fluorescence intensity (concentration not given with the values). 360,000 tested, 3.1% active. AID 624483;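 active = at least 3 SD above the mean of all compounds, about 16000 in these data; inconclusive = too few beads counted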;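 also: 100 nL of 1 mM stock went into each well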
BJeLR lethal = kills HRASV12-expressing BJeLR cells; AID 1554; 300,000 tested, 0.17% active; inhibition, % (test concentration not listed); BJeLR (HRASV12) viability, CellTiter-Glo ATP luminescence, 48 h; reference of the scale not given here;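 active = replicate mean above 50%; inconclusive = above 50% but judged a plate artefact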;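 also: 50 nL library stock added to about 25 µL; numbers are from one replicate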
Sa ugtP lethal = kills S. aureus RN4220 lacking UgtP; S. aureus RN4220 ugtP deletion, OD600 growth, 16 h; some inactives read as strong as hits; growth inhibition, % (no concentration beside the values); 330,000 tested, 0.54% active; AID 1259309;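 active = z-score under -3 and OD600 up to 0.15 on both plates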;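 also: plate controls were untreated wells for no effect and antibiotic for full effect; wells of about 80 µL received 100 nL stock; the first replicate is given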
Mtb hypoxia inh = reduces hypoxia-regulated biosensor signal in M. tuberculosis; M. tuberculosis hypoxia-regulated fluorescent reporter, fluorescence; fluorescence inhibition, % (test concentration not listed); 300,000 tested, 0.1% active;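 active = 35 to 45% if threefold the growth effect, above 45% if 1.5-fold the growth effect; inactive = the rest, general growth blockers included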;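 also: wells of about 50 µL received 100 nL stock; 0% = vehicle wells and 100% = reference inhibitor wells; whole bacteria with a GFP reporter of the hypoxia response; strong numbers were not always called active; many hits fall short of the cut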
PrP UTR inh = inhibition of PrP 5' UTR reporter expression | cell-based PrP 5' UTR mRNA reporter, plate reader | inhibition, % (test concentration not listed) | 340,000 tested, 0.35% active | AID 488862;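 active = every replicate at 50% or more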;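 also: 0 = median of the neutral control wells; tested in H4 reporter cells; numbers are from one replicate; inactives centre near -14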
Mtb hypoxia inh growth = second read-out of Mtb hypoxia inh, no call of its own (marks repeat the call); growth inhibition, %; measured here: M. tuberculosis growth (absorbance);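 0% = vehicle and 100% = reference antibiotic; read after six days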
* = called active by the depositor; ? = inconclusive; . = no result given. No enrichment for hits; 4.1% or so of the library scored in one or more.

SMILES | Sa RN4220 lethal | Bead autofluor | BJeLR lethal | Sa ugtP lethal | Mtb hypoxia inh | Mtb hypoxia inh growth | PrP UTR inh
CC(C)OCCCNC(=O)C(NC(=O)c1ccc(Cl)cc1)C(C)C (configuration not stated) | 6.9 | 4118 | -7 | 2 | 1 | -8 | -23
O=C(CCCCCNC(=O)c1ccccc1)NN=Cc1ccc(F)cc1 | -2.2 | . | . | 7 | 8 | 2 | .
O=c1[nH]c2nc(Br)[nH]c(=O)c2[nH]1 | 1.3 | 2982 | . | 6 | 20 | 8 | -19
CCCCOc1ccc(-c2nnc(N)s2)cc1 | 3.4 | 2266 | 5 | 7 | 2 | 3 | -45
CCCCNC(=O)N(O)C1N(CCCC)C(=O)N(CC(=O)OC)C1(C)C (configuration not stated) | 3.0 | 9753 | 16 | 9 | 11 | 3 | -10
Cc1ccccc1-n1ncc2c1CC(C)(C)CC2NC(=O)CCN1Cc2ccccc2C1=O (configuration not stated) | -1.3 | 5243 | -2 | -6 | 1 | 4 | -21
CC1CCc2nc(C(C#N)=Cc3ccncc3)sc2C1 (configuration not stated) | 4.9 | . | . | -2 | 4 | 6 | .
CN(C)/C=C/C(=O)c1ccc(Cl)s1 | 14 | 4144 | 6 | 6 | 10 | 5 | 8
Cc1nnc(SCC(=O)N2CCCCC2)s1 | 3.0 | 7726 | -5 | 9 | 5 | 0 | 3
CCOc1cccc(/C(O)=C2/C(=O)C(=O)N(CCOC)C2c2ccc(C)o2)c1 (configuration not stated) | 1.6 | 3418 | -4 | 1 | 8 | 9 | -14
Cc1cccc(Nc2nc(-c3ccccc3)c(C(=O)Nc3cccnc3)s2)c1 | 1.0 | 2372 | 0 | -15 | 4 | 4 | -34
COc1cccc(C=C(C(=O)OCC(=O)NCC2CCCO2)c2ccccc2)c1 (configuration not stated) | 4.7 | . | . | 1 | 2 | 9 | .
COc1ccccc1Nc1nc(-c2cccc([N+](=O)[O-])c2)nc2ccccc12 | -7.9 | 15655 | 1 | -27 | -4 | -7 | 3
COc1ccc(CNc2nc3nc(C)c(Cl)c(=O)n3[nH]2)cc1OC | 0.3 | 4541 | -1 | 0 | -3 | 4 | -18
C[C@@]12CCCC(O1)C(C(O)c1ccccc1)O2 (some centres not stated) | 5.3 | . | . | -1 | 12 | 4 | .
CC1=NN(c2ccccc2)C(=O)C1C=Nc1ccccc1O (configuration not stated) | 5.3 | 4295 | 9 | 0 | 16 | 10 | -33
O=C(COC(=O)c1c2c(nc3ccccc13)CCCC2)c1ccc(Br)s1 | 42 | 2370 | 2 | 20 | 5 | 7 | -10
O=C(NCCc1ccc2c(c1)OCCO2)c1cccc(F)c1 | -0.6 | 2607 | 4 | 0 | 9 | 9 | -32
O=C(CCOc1ccccc1)Nc1ccnn1C1CCN(Cc2ccccc2)CC1 | -2.5 | 5416 | 2 | -3 | -4 | 6 | -5
CCN(c1ccccc1)S(=O)(=O)c1cc2c(cc1C)NC(=O)CO2 | 23 | 6314 | 10 | 4 | 1 | 6 | -7
CC(C)Cc1nccs1 | 0.4 | 5204 | . | -3 | . | . | -37
CCOC(=O)c1cc2c(C)n(-c3ccc(OCC)cc3)c(C)c2cc(C(=O)OCC)c1=O | 3.1 | 2422 | -6 | 1 | 1 | 2 | -18
CCCNc1nc(N)nc(-c2cc(Cl)ccc2OC)n1 | 1.6 | 2406 | 14 | 4 | . | . | -11
Cc1cc(C(=O)COC(=O)CC(NC(N)=O)c2ccc(Cl)cc2)c(C)n1C (configuration not stated) | 0.7 | ? | . | 2 | 3 | 1 | -14
Cc1ccc(-n2ncc3c(=O)n(CC(=O)NC4CCCCC4)cnc32)cc1C | 1.5 | 6158 | 5 | 8 | -3 | 0 | 2
NNC(=O)C1=NOC2COC3(CCN(c4ncccn4)CC3)OCC12 (configuration not stated) | 3.6 | 4683 | -4 | 3 | 15 | 0 | -26
CCOC(=O)c1ccccc1NC(=O)/C=C/C(=O)O | 1.9 | 2281 | 4 | -2 | -5 | 12 | -18
c1ccc(Cn2nnc(-c3ccccc3)n2)cc1 | -0.7 | 3656 | -5 | 7 | 24 | 29 | -40
O=C(CCC(=O)N1CCN(c2ccc(O)cc2)CC1)c1ccc(Br)cc1 | 3.3 | . | -8 | 5 | 9 | -1 | .
CC(=O)c1c(O)cc2n(c1=O)-c1ccc(Cl)cc1C2(C)C | . | 2912 | 15 | . | . | . | -17
CCOc1ccc(CCNc2ccc3nnc(-c4ccccc4)n3n2)cc1OCC | 2.1 | 5618 | -8 | 2 | 10 | 7 | -13
O=C1CSc2cc(Cl)ccc2N1 | 6.6 | 3972 | . | 3 | 1 | 6 | -18
COCCCN1CN=C(Nc2nc3ccccc3o2)NC1 | 3.5 | 4190 | -7 | 4 | 12 | 10 | -17
CCOc1ccccc1NC(=O)c1ccc(C(=O)Nc2ccccc2OCC)nc1 | 1.7 | 3699 | -2 | 4 | -8 | -2 | -12
CC(Cl)C(=O)NN=C(c1ccccc1)c1ccccc1 (configuration not stated) | 4.0 | 4208 | -6 | 10 | 8 | 3 | -9
COc1ccc2c(c1OC)C(=O)N1c3ccccc3COC21 (configuration not stated) | -1.7 | 3187 | -14 | 11 | -8 | -7 | -100
CCCC12CN3CC(C)(CN(C1)C3c1cccs1)C2=O (configuration not stated) | 0.4 | 5430 | -9 | 2 | 1 | 3 | .
C=CCN1C(=O)/C(=C\c2ccc(C)cc2)N=C1SCC(=O)NCCC | . | 3264 | -7 | . | . | . | -14
Cc1cc2cc(C(c3nnnn3Cc3ccccc3)N3CCc4ccccc43)c(=O)[nH]c2cc1C (configuration not stated) | 13 | 21199* | -6 | -16 | 1 | 8 | -18
CCOCCCNC(=O)/C(C#N)=C/c1cc(C)c(O)c(C)c1 | 1.6 | 4225 | -9 | 4 | 5 | 2 | -10
O=C(Cc1ccccc1)Nc1ccc(N2CCOCC2)cc1 | 3.6 | 2055 | 6 | 8 | -4 | -2 | -16
O=c1[nH]c(=O)n(Cc2ccc(F)cc2)c(O)c1C=Nc1ccc(Cl)cc1 | -1.0 | 4641 | 8 | 0 | -5 | -7 | -15
CC(OC(=O)Cn1[nH]c(=O)c2ccccc2c1=O)C(=O)Nc1ccc(Cl)cn1 (configuration not stated) | 2.3 | 3918 | . | 2 | 13 | 6 | -11
O=C(Nn1c(-c2ccncc2)nc2ccccc2c1=O)c1ccc(Br)cc1 | 3.3 | 2711 | 1 | 3 | -10 | -11 | -14
Cc1ccccc1NC(=O)COC(=O)c1ccc2c(c1)C(=O)N(CCCN1CCOCC1)C2=O | 3.9 | 3913 | . | 6 | 7 | 2 | -16
COc1ccc(Nc2ncccc2C(=O)NCc2ccccc2)cc1 | 1.9 | 15230 | 0 | -2 | 14 | -3 | -45
COC(=O)CSc1nnc(CNC(=O)c2ccc(S(=O)(=O)N3CCCCC3)cc2)n1C | 5.1 | 24100* | . | 3 | 10 | 7 | -20
CCC(=O)N1CCc2cc(Br)cc(S(=O)(=O)N3CCC(C(=O)NCCCOC(C)C)CC3)c21 | -1.6 | 4230 | -10 | 3 | -3 | -2 | 7
COc1ccc(NC(=S)NNc2ccc(S(=O)(=O)Nc3ccccc3C(=O)O)cc2[N+](=O)[O-])cc1 | 5.2 | 3819 | 6 | 3 | 11 | -1 | 3
CC(C)Cc1nnc(NS(=O)(=O)c2ccc(Cl)cc2)s1 | 7.1 | 5706 | 1 | 5 | -6 | -13 | -13

Further compounds.
SMILES | Sa RN4220 lethal | Bead autofluor | BJeLR lethal | Sa ugtP lethal | Mtb hypoxia inh | Mtb hypoxia inh growth | PrP UTR inh
Cc1cccc2cc(CN(Cc3cccnc3)C(=S)NCCCN(C)C)c(=O)[nH]c12 | 6.5 | 3581 | 11 | 14 | 14 | 10 | -35
COc1cccc2c1NC(C(=O)O)C1CC=CC21 (configuration not stated) | . | 2192 | 17 | . | . | . | -15
Cc1cc(C)n2nc(/C(C#N)=C/c3ccccc3)c(C#N)c2n1 | 10 | 5896 | . | -25 | -5 | 9 | -26
COC(=O)c1cc(C(=O)OCC(=O)c2ccc3c(c2)NC(=O)CO3)cc([N+](=O)[O-])c1 | 5.0 | 4326 | . | 7 | -3 | -2 | -59
O=S1(=O)CC(O)C(N2CCCCC2)C1 (configuration not stated) | 3.1 | 5012 | -4 | 9 | . | . | -10
CCN(CC(=O)Nc1c(F)cccc1F)C(=O)CCOc1ccc(C)cc1 | -0.3 | 4655 | 10 | 3 | 1 | -4 | -20
C[C@H]1[C@H](C)CC[C@]2(C(=O)O)CC[C@]3(C)C(=CC[C@@H]4[C@@]5(C)C[C@@H](O)[C@H](O)C(C)(C)[C@@H]5CC[C@]43C)[C@H]12 | . | 4040 | -9 | . | . | . | -4
COc1ccc(CCNC(=S)N(C)C)cc1OC | 0.2 | 6611 | 1 | 3 | 4 | 8 | -12
COc1ccc(-c2sc3ccccc3c2C#CC2(O)CCCCC2)cc1 | -5.3 | 4449 | -3 | 80 | -29 | -36 | -14
O=C(Nc1cccc(Cl)c1)c1ccc(NCC2CCCO2)c([N+](=O)[O-])c1 (configuration not stated) | -3.2 | 2085 | 5 | 5 | 5 | 2 | -49
C=CCN1C(=O)CSc2ccc(C(=O)N3CCC4(CC3)OCCO4)cc21 | 2.0 | 17917* | -3 | 15 | 5 | 1 | -9
CCc1cc2cc3c(cc2nc1SCC(=O)Nc1cc(OC)c(OC)cc1C(=O)O)OCO3 | 26 | . | 4 | 5 | 13 | 6 | .
COc1cccc(/C=N/NC(=O)c2ccc3nc[nH]c3c2)c1O | . | 4191 | -2 | . | . | . | -48
CCOc1ccc(-c2nnc3ccc(SCc4ccc(C(=O)OC)o4)nn23)cc1 | 7.1 | 10873 | 4 | -8 | 5 | 5 | -12
O=C(CCCCCCC(=O)NCc1ccccc1)NCc1ccccc1 | -3.2 | 3990 | 7 | 6 | -7 | -2 | -20
O=C(NC1CCCCC1)N1CCC(n2c(=O)[nH]c3ccccc32)CC1 | -4.8 | 5587 | -9 | -7 | 0 | 10 | 4
O=C(O)C1CCCCC1C(=O)Nc1ccc(F)c(F)c1 (configuration not stated) | 2.2 | 2409 | 3 | 1 | 8 | -1 | 10
Cc1ccoc1C(=O)NCCNc1ccc(Cl)cc1[N+](=O)[O-] | -0.3 | 2398 | 0 | -6 | 8 | 1 | -27
